Calb FLC – C. albicans growth modulation with fluconazole; C. albicans CaCi-2 (fluconazole-resistant clinical isolate) + fluconazole, Alamar Blue growth, 48 h; growth inhibition, % (concentration not given with the values); hit rate 0.57% among 300,000;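 active means most replicates above 75%; inconclusive means exactly half above 75%; inactive means most below 75%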;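 further: all wells also contain fluconazole at 8 µg/ml as a sub-toxic cotreatment; 0% = median of DMSO wells and 100% = median of geldanamycin control wells; wells of about 8 µL received 7.5 nL stock; the first replicate is given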
Ecoli rRNA inh – inhibits bacterial ribosomal RNA function over humanized ribosomes. GFP signal change (wild-type ribosome), % (concentration not given with the values). E. coli WT GFP vs humanized-ribosome RFP mutants, fluorescence, 24 h; stronger effect = lower value; DMSO median 0, no signal -100. hit rate 1.6% among 350,000;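 active means significant combined selectivity score with lowered wild-type GFP, culture density cut under 30%, mutant RFP and density less affected; inactive means any of these conditions unmet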; further: one replicate is shown; some compounds called inactive have numbers as strong as hits
MLL AF4-AF9 inh – blocks AF4 peptide binding to human AF9; P42568; AlphaScreen, biotin-AF4 peptide binding to FLAG-AF9; inhibition, % at 10 µM; hit rate 0.47% among 350,000; AID 651704;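 active means every replicate reaching a set inhibition limit, whatever the replicate mean, cut at about 25% in these data; inconclusive means mean inhibition reaches that limit but some replicates miss it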;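 further: 0% = plate neutral control median and 100% = total signal loss; the record names both 10 and 1 µM as test concentration; the first replicate is given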
Target sequence (P42568 whole entry, looked up): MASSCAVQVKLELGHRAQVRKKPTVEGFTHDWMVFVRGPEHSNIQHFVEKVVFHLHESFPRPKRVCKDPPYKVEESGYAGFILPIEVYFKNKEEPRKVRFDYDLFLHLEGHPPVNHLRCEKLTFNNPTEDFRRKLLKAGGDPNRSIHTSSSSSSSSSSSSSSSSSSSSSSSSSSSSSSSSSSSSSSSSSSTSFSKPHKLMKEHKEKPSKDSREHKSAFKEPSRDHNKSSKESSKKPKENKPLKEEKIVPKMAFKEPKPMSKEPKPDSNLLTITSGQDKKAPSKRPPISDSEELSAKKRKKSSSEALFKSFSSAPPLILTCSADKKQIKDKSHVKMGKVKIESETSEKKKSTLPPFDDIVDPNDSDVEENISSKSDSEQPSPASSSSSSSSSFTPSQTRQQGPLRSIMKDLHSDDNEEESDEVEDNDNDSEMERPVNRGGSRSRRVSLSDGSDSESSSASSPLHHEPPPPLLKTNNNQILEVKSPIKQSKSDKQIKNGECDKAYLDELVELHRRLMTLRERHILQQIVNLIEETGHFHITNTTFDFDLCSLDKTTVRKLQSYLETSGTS
T cruzi repl – blocks replication of Trypanosoma cruzi; T. cruzi beta-gal in NIH3T3, luminescence, 90 h; inhibition, % (concentration not given with the values); hit rate 1.4% among 300,000; AID 1885;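 active means mean inhibition across valid replicates above about 55%, limit read from the data; inconclusive means mean below that limit but half or more replicates reach it; inactive means mean below it, under half of replicates reach it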;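 further: signal also drops with host cell toxicity which is not excluded here; 0% = plate median of DMSO wells and 100% = zero luminescence signal; higher percent means less beta-gal luminescence so fewer parasites; stock transfer was 50 nL into about 50 µL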
ALR inh – inhibitors of human sulfhydryl oxidase ALR | P55789 | hit rate 3.8% among 290,000 | AID 485317 | purified ALR, DTT oxidation, H2O2 HRP-luminol luminescence | inhibition, % (concentration not given with the values);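 active means mean and each replicate at 75% or more; inconclusive means only one of the two met; inactive means neither met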;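 further: stock transfer was 7.5 nL into about 7.5 µL; 0% = neutral wells and 100% = wells with inactivated enzyme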
Target sequence (P55789 whole entry, looked up): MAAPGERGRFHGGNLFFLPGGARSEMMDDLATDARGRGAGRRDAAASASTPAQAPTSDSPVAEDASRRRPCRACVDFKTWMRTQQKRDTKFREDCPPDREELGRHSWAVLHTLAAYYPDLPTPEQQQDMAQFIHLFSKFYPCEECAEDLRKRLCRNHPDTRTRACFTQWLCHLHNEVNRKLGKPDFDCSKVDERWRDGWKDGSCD
Beta cell apopt – blocks beta cell apoptosis | protection from apoptosis, % (no concentration beside the values) | hit rate 0.8% among 300,000 | INS-1E cytokine-induced death, ATP luminescence, 48 h; percent of positive-control rescue, neutral wells zero | AID 435005;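 active means all replicates at 75% or more, or half of them and the mean; inconclusive means half reach 75% but not the mean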;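 further: 0% = cytokine-treated negative control wells and 100% = positive control rescue; higher means more ATP so stronger rescue from cytokine killing; wells of about 40 µL received 100 nL stock; the first replicate is given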
FGF22 binding – shifts melting point of recombinant human FGF22 | Q9HCT0 | recombinant FGF22 thermal shift, SYPRO orange fluorescence; percent of sucrose octasulfate shift, DMSO zero | calls only at 9.99 µM | hit rate 1.5% among 340,000 | AID 651658;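 active means melting point raised past a set limit in the mean and every replicate; inconclusive means no clear call; three in four hits are not shown here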
Target sequence (Q9HCT0 whole entry, looked up): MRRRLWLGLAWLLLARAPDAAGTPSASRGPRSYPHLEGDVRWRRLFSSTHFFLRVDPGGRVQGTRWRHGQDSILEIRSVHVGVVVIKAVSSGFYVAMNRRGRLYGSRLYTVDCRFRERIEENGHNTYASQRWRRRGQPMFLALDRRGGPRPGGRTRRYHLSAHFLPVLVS
RanGTP-Impb inh – disruptors of Ran-importin-beta complex formation – biochemical, FRET, CFP-Ran, YFP-importin-beta, homogeneous, primary screen; hit rate 1.1% among 300,000; cell-free CFP-Ran/YFP-importin-beta FRET ratio; AID 2216; inhibition, % (no concentration beside the values);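 active means most replicates above 15%; inconclusive means exactly half above 15%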;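 further: 0% = DMSO wells and 100% = Ran loaded with GDP instead of GTP; wells of about 40 µL received 100 nL stock; the first replicate is given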
Ecoli rRNA inh OD600 – further read-out of Ecoli rRNA inh, marked with its call; OD600 change, %; measured here: OD600 growth;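 optical density of the mix in the first replicate; 0 = DMSO median and -100 = no signal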
Ecoli rRNA inh RFP – second read-out of Ecoli rRNA inh, no call of its own (marks repeat the call); RFP signal change, %; measured here: RFP humanized mutant strains;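 first replicate; 0 = DMSO median and -100 = no signal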
An asterisk follows results filed as active. Some of the compounds tested. The share of hits here may be higher or lower than overall.

CCOc1ccccc1Nc1nnc(SCC(=O)NCC2CCCO2)s1 (stereo not drawn) was read as Ecoli rRNA inh 0, MLL AF4-AF9 inh -2.2, ALR inh 1, Beta cell apopt -3, FGF22 binding inactive, Ecoli rRNA inh OD600 3 and Ecoli rRNA inh RFP -2.1.
`CCOC(=O)c1c(-c2ccc(C)o2)csc1NC(=O)CSc1nncs1` gave Calb FLC 25, T cruzi repl 20, ALR inh 9 and RanGTP-Impb inh 0.9.
CCCCNC(=O)CN(c1cc(C(F)(F)F)ccc1Cl)S(C)(=O)=O was read as Calb FLC -2, T cruzi repl 5, Beta cell apopt 7 and RanGTP-Impb inh 1.8.
`C/C(=N\NC(=O)CC(C)C)c1c(C(F)(F)F)[nH]n(-c2nc3ccccc3s2)c1=O` gave Calb FLC 8, Ecoli rRNA inh 5, MLL AF4-AF9 inh 2.5, T cruzi repl 12, Beta cell apopt 9, FGF22 binding inactive, RanGTP-Impb inh 4.6, Ecoli rRNA inh OD600 0 and Ecoli rRNA inh RFP 0.8.
O=C(Nc1ncc(Cc2ccccc2Cl)s1)C1=NCCN1 was read as Calb FLC inconclusive, Ecoli rRNA inh -3, MLL AF4-AF9 inh -4.8, T cruzi repl 0, ALR inh 0, Beta cell apopt 4, FGF22 binding inactive, RanGTP-Impb inh 1.2, Ecoli rRNA inh OD600 -10 and Ecoli rRNA inh RFP 0.8.
CCOc1ccc(N=Nc2c(=O)[nH]n3c(C)cc(C)nc23)cc1 was read as Calb FLC 0, Ecoli rRNA inh 12, MLL AF4-AF9 inh -26, T cruzi repl 2, ALR inh 40, Beta cell apopt 12, FGF22 binding inactive, RanGTP-Impb inh -4.6, Ecoli rRNA inh OD600 9 and Ecoli rRNA inh RFP -8.3.
For O=[N+]([O-])c1ccc(CN2C=NS(=O)(=O)c3ccccc32)cc1 the results were Calb FLC -10, Ecoli rRNA inh 2, MLL AF4-AF9 inh 0.1, T cruzi repl 0, ALR inh -12, Beta cell apopt 0, FGF22 binding inactive, RanGTP-Impb inh -1.1, Ecoli rRNA inh OD600 2 and Ecoli rRNA inh RFP 0.9.
`COc1cc(C(=O)OCC(=O)NC(=O)C2CCCCC2)ccc1OC(F)F` gave Calb FLC -2, Ecoli rRNA inh 3, MLL AF4-AF9 inh -1.9, T cruzi repl -13, ALR inh -3, Beta cell apopt -5, RanGTP-Impb inh 2.6, Ecoli rRNA inh OD600 27 and Ecoli rRNA inh RFP 4.9.
For Cc1c(NC(=O)NC(C)N2C(=O)C3C4C=CC(C4)C3C2=O)c(=O)n(-c2ccccc2)n1C (stereo not drawn) the results were Calb FLC 8, T cruzi repl -3, ALR inh -12, Beta cell apopt 6 and RanGTP-Impb inh -4.8.
CCCn1nc(C(=O)Nc2ccc(N3CCOCC3)cc2)c2ccccc2c1=O was read as MLL AF4-AF9 inh 0.4, ALR inh 9, Beta cell apopt -2 and FGF22 binding inactive.
For Cc1cccc2sc(NC(=O)CSc3nnnn3C)nc12 the results were Calb FLC 0, Ecoli rRNA inh -20, MLL AF4-AF9 inh -5.7, T cruzi repl -15, ALR inh -4, Beta cell apopt 2, FGF22 binding inactive, RanGTP-Impb inh 5.3, Ecoli rRNA inh OD600 -19 and Ecoli rRNA inh RFP -1.3.
CCOC(=O)c1c(S(=O)(=O)NCc2ccco2)c(C)n(C)c1C was read as Calb FLC -2, Ecoli rRNA inh 15, MLL AF4-AF9 inh 1.9, T cruzi repl -10, ALR inh -6, FGF22 binding inactive, RanGTP-Impb inh 7.5, Ecoli rRNA inh OD600 13 and Ecoli rRNA inh RFP 0.8.

Random excerpt: two compounds from above, in no set order.
`CCOC(=O)c1c(-c2ccc(C)o2)csc1NC(=O)CSc1nncs1` gave Calb FLC 25, T cruzi repl 20, ALR inh 9 and RanGTP-Impb inh 0.9.
`COc1cc(C(=O)OCC(=O)NC(=O)C2CCCCC2)ccc1OC(F)F` gave Calb FLC -2, Ecoli rRNA inh 3, MLL AF4-AF9 inh -1.9, T cruzi repl -13, ALR inh -3, Beta cell apopt -5, RanGTP-Impb inh 2.6, Ecoli rRNA inh OD600 27 and Ecoli rRNA inh RFP 4.9.

More records follow:
For CCN(CC)S(=O)(=O)c1cc(NC(=O)C(C)N(C)CC(=O)Nc2c(C)cccc2C)ccc1C (stereo not drawn) the results were Calb FLC 1, T cruzi repl 18, ALR inh -4, Beta cell apopt -1 and RanGTP-Impb inh inconclusive.
`CC1C(=O)N2CCCc3cc(NC(=O)C(=O)NCc4ccccn4)cc1c32` (stereo not drawn) gave Calb FLC -1, Ecoli rRNA inh 5, MLL AF4-AF9 inh 5.8, T cruzi repl -5, ALR inh -8, Beta cell apopt -2, FGF22 binding inactive, RanGTP-Impb inh 0.2, Ecoli rRNA inh OD600 3 and Ecoli rRNA inh RFP -0.9.
For Cc1cccc(C(C)C)c1NC(=O)COC(=O)COc1ccc2c(C)cc(=O)oc2c1 the results were Calb FLC 14, T cruzi repl -8, ALR inh -1, Beta cell apopt -3 and RanGTP-Impb inh 3.1.
Screening CC(=O)Nc1ccc(NC(=O)CCCN2C(=O)c3ccccc3C2=O)cc1 returned Calb FLC 108*, Ecoli rRNA inh 8, MLL AF4-AF9 inh 0.9, T cruzi repl -14, ALR inh -6, Beta cell apopt -1, FGF22 binding inactive, RanGTP-Impb inh -1.2, Ecoli rRNA inh OD600 7 and Ecoli rRNA inh RFP 0.0.
CC(=O)c1nnn(-c2cccc([N+](=O)[O-])c2)c1C was read as Calb FLC -1, Ecoli rRNA inh 15, MLL AF4-AF9 inh -1.0, T cruzi repl 0, ALR inh -6, Beta cell apopt -9, FGF22 binding inactive, RanGTP-Impb inh -3.1, Ecoli rRNA inh OD600 7 and Ecoli rRNA inh RFP -4.5.
COc1ccc(-c2cn3cccc(C)c3n2)cc1F was read as Calb FLC -9, Ecoli rRNA inh -21, MLL AF4-AF9 inh -0.3, T cruzi repl -26, ALR inh 5, Beta cell apopt -1, FGF22 binding inactive, RanGTP-Impb inh 6.2, Ecoli rRNA inh OD600 -16 and Ecoli rRNA inh RFP -5.2.
`COc1cc(C(=O)Oc2ccccc2/C=N/NC(=O)c2ccc(C)cc2)cc(OC)c1OC` gave Calb FLC 1, T cruzi repl 3, ALR inh -20, Beta cell apopt 103* and RanGTP-Impb inh 1.0.
N=c1oc2ccccc2cc1-c1nc2ccccc2c(=O)[nH]1 was read as Calb FLC -8, Ecoli rRNA inh -2, MLL AF4-AF9 inh -3.8, T cruzi repl -11, ALR inh 94*, Beta cell apopt 2, FGF22 binding inactive, RanGTP-Impb inh 3.0, Ecoli rRNA inh OD600 -18 and Ecoli rRNA inh RFP 2.4.
For COc1ccc(NC(=O)CN2CCN(c3ccc(F)cc3)CC2)cc1Cl the results were Calb FLC 31, T cruzi repl -5, ALR inh 29, Beta cell apopt -4 and RanGTP-Impb inh 5.6.
For COc1ccc(NC(=O)C2=CC(c3ccc(C)cc3)=NS(=O)(=O)N2C)cc1OC the results were Calb FLC -11, Ecoli rRNA inh 5, MLL AF4-AF9 inh 2.3, T cruzi repl -6, ALR inh -16, Beta cell apopt -1, FGF22 binding inactive, RanGTP-Impb inh -0.6, Ecoli rRNA inh OD600 1 and Ecoli rRNA inh RFP -5.9.
Screening O=c1cc(-c2ccccc2)[nH]n2cnnc12 returned Calb FLC -8, Ecoli rRNA inh 7, MLL AF4-AF9 inh -2.7, T cruzi repl -3, ALR inh -5, Beta cell apopt 3, FGF22 binding inactive, RanGTP-Impb inh inconclusive, Ecoli rRNA inh OD600 13 and Ecoli rRNA inh RFP 0.1.
`CCOC(=O)CSc1nnc(COc2ccc3ccccc3c2)o1` gave Calb FLC 17, Ecoli rRNA inh -2, MLL AF4-AF9 inh -4.7, T cruzi repl -16, ALR inh -5, Beta cell apopt -7, FGF22 binding inactive, RanGTP-Impb inh 0.6, Ecoli rRNA inh OD600 -4 and Ecoli rRNA inh RFP 3.4.
For Cc1ccccc1NC(=S)NCC(c1cccnc1)N1CCOCC1 (stereo not drawn) the results were Calb FLC 11, Ecoli rRNA inh 25, MLL AF4-AF9 inh 3.2, T cruzi repl -6, ALR inh 1, Beta cell apopt 3, FGF22 binding inactive, RanGTP-Impb inh 2.0, Ecoli rRNA inh OD600 25 and Ecoli rRNA inh RFP -1.6.
Cn1c(SCC(=O)Nc2ccc3c(c2)OCO3)nnc1-c1cnccn1 was read as Calb FLC 3, T cruzi repl 4, ALR inh -13, Beta cell apopt 6 and RanGTP-Impb inh 5.1.
For O=C(NC(=S)Nc1cc(Cl)ccc1N1CCOCC1)c1ccccc1[N+](=O)[O-] the results were Calb FLC -7, Ecoli rRNA inh -6, MLL AF4-AF9 inh -4.0, T cruzi repl 19, ALR inh 3, Beta cell apopt 8, FGF22 binding inactive, RanGTP-Impb inh 2.6, Ecoli rRNA inh OD600 -6 and Ecoli rRNA inh RFP 1.0.
`CC(=O)OCCCn1c(C)[n+](C)c2cc(Cl)c(Cl)cc21` gave Calb FLC 0, Ecoli rRNA inh 24, MLL AF4-AF9 inh -0.3, T cruzi repl -4, ALR inh 1, Beta cell apopt 1, FGF22 binding inactive, RanGTP-Impb inh 2.2, Ecoli rRNA inh OD600 21 and Ecoli rRNA inh RFP 2.4.
For CC1CCN(S(=O)(=O)c2cn(C)c(=O)n(C)c2=O)CC1 the results were Calb FLC 3, Ecoli rRNA inh 6, MLL AF4-AF9 inh 0.3, T cruzi repl -1, Beta cell apopt 4, FGF22 binding inactive, RanGTP-Impb inh 0.7, Ecoli rRNA inh OD600 24 and Ecoli rRNA inh RFP -0.7.
For CCOC(=O)N1N=C(CC)CC1(O)C(F)(F)F (stereo not drawn) the results were Calb FLC 2, T cruzi repl -9, ALR inh -3, Beta cell apopt -1 and RanGTP-Impb inh -1.3.
Screening CCOC(=O)CCNCc1ccc(F)cc1 returned Calb FLC 1, Ecoli rRNA inh 17, MLL AF4-AF9 inh 1.5, T cruzi repl 0, ALR inh 6, Beta cell apopt -19, FGF22 binding inactive, RanGTP-Impb inh -2.8, Ecoli rRNA inh OD600 7 and Ecoli rRNA inh RFP -0.4.
`COc1ccc(C(=O)N2CCc3cc(OC)c(OC)cc3C2c2cccc([N+](=O)[O-])c2)cc1OC` (stereo not drawn) gave Calb FLC -2, T cruzi repl -6, ALR inh -14, Beta cell apopt 3 and RanGTP-Impb inh 1.3.
For CC(=O)N1CCN(Cc2nc3cc(NS(C)(=O)=O)ccc3n2C)CC1 the results were Calb FLC -5, T cruzi repl -3, ALR inh -5, Beta cell apopt 0 and RanGTP-Impb inh inconclusive.
For CC(NC(=O)c1ccccc1)c1ccc(Br)cc1 (stereo not drawn) the results were Calb FLC -18, Ecoli rRNA inh 10, MLL AF4-AF9 inh -1.1, T cruzi repl 7, ALR inh 2, Beta cell apopt 3, RanGTP-Impb inh -2.0, Ecoli rRNA inh OD600 2 and Ecoli rRNA inh RFP -2.8.
